Screening data deposited in PubChem by National Center for Advancing Translational Sciences (NCATS).
SARS PLpro yeast – SARS-CoV PLP inhibition in yeast; Potency, µM (series often up to 32.9 µM), without a hit: at the highest dose activity, positive = growth rescue; actives 0.19% (n = 330,000); S. cerevisiae expressing SARS-CoV PLpro, growth rescue; control for the full effect not named in the record; active means well fitted rising curve with a large enough effect; inconclusive means small, poorly fitted or top-dose-only effect; inactive means no such curve, though single readings can be large or run the other way; also: 0% is about no effect; nearly all actives have a fitted effect of over 55% in size; growth read by luminescence after 48 h
NS1 function inh – inhibitors of influenza NS1 protein function | actives 0.4% (n = 270,000) | Potency, µM (doses to about 46.1 µM), without a hit: at the top dose activity, positive = more growth | S. cerevisiae slowed by influenza A NS1, growth recovery by OD600; active means well fitted rising curve with a large enough effect; inconclusive means small, poorly fitted or top-dose-only effect; inactive means no such curve, though single readings can be large or run the other way; also: nearly all actives have a fitted effect of over 50% in size
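In this qHTS, NS1 from influenza A is expressed in budding yeast, where it slows growth. Cells are switched from glucose to 2% galactose medium (pH 6.0, -URA), treated with compound, and growth recovery is read at OD600.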
StopGo reporter – lowers the luciferase signal of an FMDV 2A StopGo reporter; human cells with a luciferase reporter of 2A StopGo recoding; control for the full effect not named in the record; Potency, µM (series often up to 57.9 µM), for inactives: at the highest dose signal change, negative = less light; actives 1.2% (n = 410,000); AID 1159524; active = well fitted falling curve with a large enough effect; inconclusive = small, poorly fitted or top-dose-only effect; inactive = no such curve, though single readings can be large or run the other way; tested in HEK293T cells; also: % is scaled to controls: 0 for no effect and ±100 for the full control effect; nearly all actives have a fitted effect of over 45% in size; luciferase light after 4 h
Cruzain Triton – inhibitors of Trypanosoma cruzi cruzain with detergent; P25779; purified cruzain, Z-FR-AMC fluorescence, 0.01% Triton; Potency, µM, inactives show max response, negative = inhibition, actives largely listed as inhibitors; actives 0.43% (n = 200,000);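 also: plate controls were neutral wells for no effect and buffer without enzyme for full effect; nearly all actives have a fitted effect of over 40% in size; top concentration of the series not given in the record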
Target sequence (P25779 123-467 limits assumed): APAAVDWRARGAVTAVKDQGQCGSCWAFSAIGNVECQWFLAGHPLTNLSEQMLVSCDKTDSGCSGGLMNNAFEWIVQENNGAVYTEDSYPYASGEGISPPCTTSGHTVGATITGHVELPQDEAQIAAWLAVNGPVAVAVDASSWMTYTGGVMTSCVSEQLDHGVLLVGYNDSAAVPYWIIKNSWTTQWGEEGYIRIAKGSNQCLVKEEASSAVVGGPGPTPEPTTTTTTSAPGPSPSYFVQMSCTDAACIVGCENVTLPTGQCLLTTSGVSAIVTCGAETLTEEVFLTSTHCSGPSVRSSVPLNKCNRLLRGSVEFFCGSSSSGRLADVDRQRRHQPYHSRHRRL
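In this qHTS format, compounds are incubated with 1.5 nM cruzain for 15 min at room temperature before 2 uM Z-FR-AMC is added. Release of AMC is followed at 360/450 nm, and progress is taken as the 60 s fluorescence difference.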
MARV entry inh – blocks Marburg virus binding to or entry into cells | Marburg virus pseudotyped entry inhibition, cell reporter; control for the full effect not named in the record; about a third of the inactives were read at about 46 µM | Potency, µM (series often up to 37.8 µM), inactives show at the top dose activity change, negative = inhibition, usual class: inhibitors | actives 1.8% (n = 300,000); active = well fitted inhibition curve with a large enough effect; inconclusive = small, poorly fitted or top-dose-only effect, or effect the other way; inactive = flat fitted curve, though single readings scatter; tested in HEK293 cells; about a fifth of its hits are not listed in these tables; also: % is scaled to controls: 0 for no effect and ±100 for the full control effect; luciferase read-out
RE007 growth inh – less growth of the S. pombe RE007 Vpr strain. Potency, µM (series often up to 92.2 µM), for inactives: at the highest dose activity change, negative = less growth. AID 651644. actives 0.21% (n = 360,000). S. pombe RE007 Vpr strain, BacTiter-Glo ATP luminescence, 24 h; control for the full effect not named in the record; active = well fitted falling curve with a large enough effect; inconclusive = small, poorly fitted or top-dose-only effect; inactive = no such curve, though single readings can be large or run the other way;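 also: % is scaled to controls: 0 for no effect and ±100 for the full control effect; nearly all actives have a fitted effect of over 50% in size; the assay follows cell death caused by Vpr and the record does not say whether a fall means rescue or toxicity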
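Fission yeast RE007 carrying one integrated HIV-1 vpr copy, seeded at OD 0.01 in PMG+AL medium with 23 nL pinned compound. Grown 24 h at 30 degrees; viability read by BacTiter-Glo luminescence after 5 min.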
Lassa entry inh – inhibitors of Lassa virus binding or cell entry; Potency, µM (titrated, usually from 37.9 µM), for the others: top-dose activity change, negative = inhibition, usual class: inhibitors; AID 540256; Lassa virus pseudotype entry inhibition, cell reporter; control for the full effect not named in the record; actives 1.2% (n = 300,000); active means well fitted inhibition curve with a large enough effect; inconclusive means small, poorly fitted or top-dose-only effect, or effect the other way; inactive means flat fitted curve, though single readings scatter; tested in HEK293 cells; also: % is scaled to controls: 0 for no effect and ±100 for the full control effect; nearly all actives have a fitted effect of over 50% in size; luciferase read-out
Cruzain inh noDet – cruzain (T. cruzi) inhibition without detergent; P25779; purified cruzain, Z-FR-AMC fluorescence, no detergent; Potency, µM, without a hit: max response, negative = inhibition, usual class: inhibitors; actives 2.3% (n = 200,000);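 also: plate controls were enzyme without inhibitor for no effect and buffer without enzyme for full effect; nearly all actives have a fitted effect of over 40% in size; top concentration of the series not given in the record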
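Detergent-free condition (0.00005% Triton X-100) in acetate buffer pH 5.5 with DTT. 1.5 nM enzyme and compound were pre-mixed 15 min, then 2 uM Z-FR-AMC substrate added; reaction progress from fluorescence change between first and third reads (60 s).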
Active calls of the source: *; ? = inconclusive; . = not tested or not shown; & = joins results of further samples; [ ] = remark or other dose. Unless noted, calls follow the shape of the dose curve; as a rule, active = well fitted curve in the direction sought with a large enough effect; inconclusive = small, poorly fitted or top-dose-only effect, or another doubt; inactive = no such curve, though single readings can be large; an effect the other way counts as inactive or inconclusive. Potency is read from the fitted curve at half-maximal effect.

SMILES | SARS PLpro yeast | NS1 function inh | StopGo reporter | Cruzain Triton | MARV entry inh | RE007 growth inh | Lassa entry inh | Cruzain inh noDet
CCCNC(=O)C(Cc1ccccc1)NS(=O)(=O)c1ccc2c(c1)CCC(=O)N2 (configuration not stated) | 6% | -8% | 35%[activator] | 3.3% | . | -4% | . | 3%
CC(CCc1ccccc1)NC(=O)c1ccc(-n2cncn2)c([N+](=O)[O-])c1 (configuration not stated) | -4% | . | -12% | . | -6% | -6% | 18% | .
CCN(CC)C(=O)CNC(=S)N(CCCN1CCOCC1)Cc1cccs1 | -1% | 2% | -5% | 0.1% | ? | -15% | ? | 5%
COc1ccc(CC(=O)Nc2cccc(-c3ccc4nncn4n3)c2)cc1OC | 3% | . | 18µM* | . | ? | -12% | ? | .
CCOC(=O)CNC(=O)CNC(=O)c1nn(-c2ccc(OC)c(Cl)c2)c(=O)c2ccccc12 | -1% | . | 0% | . | -5% | 14% | -15% | .
Cc1cccc(C(=O)N(Cc2ccco2)Cc2ccccc2F)c1 | . | . | 5% | -5.9% | -6%[46.1 µM] | . | 21%[46.1 µM] | -2%
Cc1ccc(N2CC(c3nnc(Cc4ccc(F)cc4Cl)o3)CC2=O)cc1 (configuration not stated) | . | . | -20% | -7.4% | 0%[46.1 µM] | . | 15%[46.1 µM] | 11%
NC(=O)CN1CCN(c2nc(-c3ccc(F)cc3)cs2)CC1 | -9% | 7% | -5% | -1.8% | 13% | -1% | 10% | 0%
O=S(=O)(c1ccccc1Cl)N1CCC(O)(c2cccnc2)CC1 | 0% | 3% | -12% | . | 1%[46.1 µM] | 0% | -12% | .
O=C1c2ccccc2-c2nnc(-c3ccc(F)cc3)cc21 | 0% | . | -22% | . | ? | -23% | -12%[46.1 µM] | .
COc1ccc(OC(=O)CCc2c[nH]c3ccccc23)cc1 | -7% | . | -1% | . | -8%[46.1 µM] | -25% | 4% | .
CCN(CC(=O)Nc1ccc(NC(C)=O)cc1)CC(=O)Nc1ccc(Cl)c(Cl)c1 | -1% | 2% | 6% | . | 4% | -15% | 0% | .
COc1ccccc1C1C(C#N)=C(N)Oc2cc(C)n(Cc3ccccn3)c(=O)c21 (configuration not stated) | 16% | 10% | 4% | -5.9% | ? | -5% | 17% | 4%
O=C(Nc1cccc(Cl)c1)Nn1cnnc1 | -1% | -1%&0% | 6% | 2.6% | . | 6% | . | 5%
COc1ccc(CCN=C(NS(=O)(=O)c2ccc(Cl)cc2)c2ccccc2)cc1 | -1% | -3% | 29% | . | ? | -6% | ? | .
O=C(CC(=O)N/N=C/c1ccc(F)cc1)N/N=C/c1ccc(F)cc1 | 0% | 2% | 20% | . | . | 0% | . | .
CCOc1ccc(C(=O)Nc2ccc(S(=O)(=O)N3CCN(C)CC3)cc2)cc1 | 6% | 28% | -19% | . | . | 10% | 9% | .
O=C(COc1ccc2ccc(=O)oc2c1)N1C[C@H]2C[C@@H](C1)c1cccc(=O)n1C2 | -6% | 19% | -9% | . | . | -9% | . | .
Cc1ccccc1CC(=O)Nc1ccon1 | 6% | 22% | -12% | . | 22% | -10% | ? | .
Cc1ccc(N2CC(C(=O)N3CCC(C(=O)Nc4cccc(Br)c4)CC3)CC2=O)cc1 (configuration not stated) | -15% | 7% | -18% | . | 5%[46.1 µM] | -11% | ? | .
NC(=O)C1CCN(C(=O)CCSCc2ccc(Cl)c(Cl)c2)CC1 | -4% | 6% | -12% | . | ? | 4% | 6% | .
CCCCCCCCn1c(N2CCN(c3cccc(Cl)c3)CC2)nc2c1c(=O)[nH]c(=O)n2C | 23% | -2% | -3% | -0.1% | ? | -13% | ? | 5%
CCOc1ccccc1NC(=O)N(C)CCc1c(C)nn(CC)c1C | . | . | 38%[activator] | 0.5% | . | . | 14%[46.1 µM] | -1%
C(=N\n1cnnc1)/c1ccc(OCc2ccccc2)cc1 | -8% | -202% | 39%[activator] | -4.4% | 1% | 3% | -3% | 1%
Cc1oc2ccc(NS(=O)(=O)c3cccc4cccnc34)cc2c1C(=O)OC(C)C | 12% | -7% | -17% | -7.8% | ? | -4% | ? | -8%
Cc1cc(C(=O)N2CCCC(Nc3ccc(C(C)C)cc3)C2)nn1C (configuration not stated) | -6% | -5% | ? | . | . | -6% | . | .
Cc1nc(CCNC(=O)C2CCC(=O)N(Cc3cccc(F)c3)C2)sc1C (configuration not stated) | ? | -2% | -10% | . | . | -2% | . | .
Cc1ccc2ncnc(Oc3ncccc3[N+](=O)[O-])c2c1 | -1% | 3% | 31%[activator] | . | . | -3% | . | .
COc1cc(CNCc2cccs2)ccc1OCc1cccs1 | -3% | -1% | . | 0.6% | ? | -3% | -2% | 9%
O=C(Nc1ccc(S(=O)(=O)NCC2CCCO2)cc1)c1ccc(F)cc1 (configuration not stated) | 0% | 7% | -5% | . | 0%[46.1 µM] | -17% | ? | .
CCCS(=O)(=O)N1CCC(C(=O)NC2CCC(C)CC2)CC1 (configuration not stated) | -8% | 9% | 29% | -1.0% | 27% | -5% | 15% | -3%
CC1CCN(C(=S)NC(=O)c2ccco2)CC1 | -6% | 5% | -10% | . | 5%[46.1 µM] | -6% | ? | .
COc1ccc(C(=O)Nc2ccccc2C)cc1S(=O)(=O)N1CCOCC1 | 1% | 2% | -1% | . | -20%[46.1 µM] | ? | 1%[46.1 µM] | .
CCCc1cc(-c2nc(-c3ccc(Cl)cc3)cs2)ccn1 | -38% | -91% | -24% | -5.8% | 0% | ? | -2% | 29%
Cc1nc2c(ccc3nc(NC(=O)C(c4ccccc4)c4ccccc4)sc32)s1 | -17% | 10% | 13µM* | -0.5% | -6% | -4% | 7% | ?
COc1ccccc1CC(=O)NC1CCCc2ccccc21 (configuration not stated) | 0% | -3% | 0% | . | -11% | 1% | 3% | .
O=C(COc1cccc(C(F)(F)F)c1)Nc1cccnc1 | -2% | -27% | -10% | . | . | 5% | . | .
CCOc1ccc(CN(CCc2ccc3c(c2)OCO3)Cc2ccc(CC)cc2)cc1 | . | . | 0% | -3.0% | . | . | -10%[46.1 µM] | 4%
Cc1cc(C(=O)COc2ccc(C#N)cc2)c(C)n1-c1ccc2c(c1)OCO2 | 29% | 22% | ? | -1.8% | -14% | -10% | 2% | 25µM*
O=C(NNS(=O)(=O)c1ccc(Br)cc1)c1sccc1-n1cccc1 | 1% | . | 28% | . | 11%[46.1 µM] | 7% | 1% | .

The closing 3 entries of the part before lead into the next:
SMILES | SARS PLpro yeast | NS1 function inh | StopGo reporter | Cruzain Triton | MARV entry inh | RE007 growth inh | Lassa entry inh | Cruzain inh noDet
CCOc1ccc(CN(CCc2ccc3c(c2)OCO3)Cc2ccc(CC)cc2)cc1 | . | . | 0% | -3.0% | . | . | -10%[46.1 µM] | 4%
Cc1cc(C(=O)COc2ccc(C#N)cc2)c(C)n1-c1ccc2c(c1)OCO2 | 29% | 22% | ? | -1.8% | -14% | -10% | 2% | 25µM*
O=C(NNS(=O)(=O)c1ccc(Br)cc1)c1sccc1-n1cccc1 | 1% | . | 28% | . | 11%[46.1 µM] | 7% | 1% | .
COC(=O)c1ccc(C(c2c(C)[nH][nH]c2=O)c2c(C)[nH][nH]c2=O)cc1 | 3% | -1% | -14% | . | . | 7% | . | .
COc1cccc2c1Oc1nc(-c3ccccc3)nc(SCC(=O)N3CCCCC3)c1C2 | . | . | ? | -0.4% | -1%[46.1 µM] | . | 6%[46.1 µM] | -5%
CCNC(=O)CN(c1ccc(C)cc1)S(=O)(=O)c1ccc(SC)cc1 | ? | -14% | 32%[activator] | 3.9% | ? | 0% | -19% | -1%
CCCCSc1nnc(CSc2nc3nc(C)cc(C)n3n2)o1 | 5% | -4% | 17% | 1.0% | 17% | -3% | ? | -10%
N#CC1=C(N)C(C#N)(C#N)C(c2cccnc2)C2CN(C(=O)OCc3ccccc3)CC=C12 (configuration not stated) | -3% | 16% | ? | -7.3% | -18% | 20% | ? | ?
COc1cccc(-n2nnc(-c3nc(-c4ccccc4F)no3)c2C)c1 | . | . | -18% | 3.1% | . | . | 12%[46.1 µM] | -1%
Nc1nc(SCC(=O)c2c(N)n(C3CC3)c(=O)[nH]c2=O)n[nH]1 | 2% | . | -9% | . | ? | 12% | -11% | .
CCCCCCN1CC(C(=O)OCC)C(=O)C1=O (configuration not stated) | -22% | -17% | -9% | 0.9% | ? | . | -8% | -2%
CCOC(=O)N1CCN(C(=O)c2cc3cc(OC)c(OC)cc3[nH]2)CC1 | -1% | 0% | -4% | . | . | -8% | . | .
O=C(NC1CCCCCC1)c1ccc(CS(=O)(=O)Cc2ccc(F)cc2)o1 | -2% | 0% | 10% | . | . | -5% | . | .
CC1=C(C(=O)OC2CCCC2)C(c2ccc(F)cc2F)CC(=O)N1 (configuration not stated) | . | . | -5% | -3.8% | 0%[46.1 µM] | . | -1%[46.1 µM] | -1%
O=C(O)Cc1c(O)ccc2ccccc12 | 5% | 5%&9% | -3% | 0.4%&2.3% | 0%&0%&0% | -27% | 3% | -2%&-7%
COc1cccc(CNC(=O)c2cnc3sc(N4CCCC4)nn3c2=O)c1OC | . | . | -8% | -1.3% | . | . | 13%[46.1 µM] | -9%
CC1CC(C)(C)NC(=S)N1CCC(=O)N1CCc2ccccc21 (configuration not stated) | 26% | . | 3% | . | -16% | -12% | 14% | .
Cc1ccc(CNC(=O)CSc2n[nH]c(N)n2)cc1 | -4% | 3% | -10% | 4.1% | 3% | -6% | -2% | 1%
Cc1nc(C)c(C(=O)O)s1 | 1% | 0% | -22% | . | ? | 14% | 1%[46.1 µM] | .
CN1CCC(OC(=O)Cc2ccccc2)CC1 | 0% | 3% | -7% | . | . | -13% | . | .

Single records, as listed above. Order of values: SARS PLpro yeast | NS1 function inh | StopGo reporter | Cruzain Triton | MARV entry inh | RE007 growth inh | Lassa entry inh | Cruzain inh noDet
O=C(NC1CCCCCC1)c1ccc(CS(=O)(=O)Cc2ccc(F)cc2)o1 as listed: -2% | 0% | 10% | . | . | -5% | . | .
COc1cccc2c1Oc1nc(-c3ccccc3)nc(SCC(=O)N3CCCCC3)c1C2 as listed: . | . | ? | -0.4% | -1%[46.1 µM] | . | 6%[46.1 µM] | -5%
